# High-throughput results (PubChem BioAssay)
# Beta cell apopt: inhibitors of cytokine-induced beta cell apoptosis, primary screen, luminescence; INS-1E cytokine-induced death, ATP luminescence, 48 h; percent of positive-control rescue, neutral wells zero; protection from apoptosis, % (concentration not given with the values); actives 0.8% (n = 300,000); AID 435005, 2010;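 active = all replicates at 75% or more, or half of them and the mean; inconclusive = half reach 75% but not the mean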;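 note: 0% = cytokine-treated negative control wells and 100% = positive control rescue; higher means more ATP so stronger rescue from cytokine killing; wells of about 40 µL received 100 nL stock; the first replicate is given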
# Calb FLC: C. albicans growth inhibition with fluconazole, primary screen, CaCi-2 strain, Alamar Blue fluorescence; C. albicans CaCi-2 (fluconazole-resistant clinical isolate) + fluconazole, 48 h; growth inhibition, % (concentration not given with the values); actives 0.57% (n = 300,000);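 active = most replicates above 75%; inconclusive = exactly half above 75%; inactive = most below 75%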;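 note: all wells also contain fluconazole at 8 µg/ml as a sub-toxic cotreatment; 0% = median of DMSO wells and 100% = median of geldanamycin control wells; wells of about 8 µL received 7.5 nL stock; the first replicate is given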
# LANA-H2A inh: blockers of LANA interaction with H2A/H2B – biochemical, FP readout, HTS, primary screen; Protein LANA1 (Human herpesvirus 8 type P (isolate GK18)), Q9QR71; cell-free LANA-H2A/H2B peptide, fluorescence polarization; inhibition, % (concentration not given with the values); actives 0.6% (n = 320,000); in the data active = inhibition mostly above about 10%, no sharp cut-off; inactive = mostly below about 6.7%;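 note: stock transfer was 7.5 nL into about 10 µL; 0% = median of vehicle wells and 100% = median of positive control wells; one replicate is shown; the record names a cut of 25% in any replicate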
# ALR H2O2 inh: inhibitors of human ALR sulfhydryl oxidase, primary screen, biochemical, H2O2 detection, HRP-luminol luminescence, single point | FAD-linked sulfhydryl oxidase ALR (Homo sapiens), P55789 | purified ALR, DTT oxidation | inhibition, % (concentration not given with the values) | actives 3.8% (n = 290,000) | AID 485317, 2010;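 active = mean and each replicate at 75% or more; inconclusive = only one of the two met; inactive = neither met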;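 note: stock transfer was 7.5 nL into about 7.5 µL; 0% = neutral wells and 100% = wells with inactivated enzyme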
# Target sequence (P55789 whole entry, looked up): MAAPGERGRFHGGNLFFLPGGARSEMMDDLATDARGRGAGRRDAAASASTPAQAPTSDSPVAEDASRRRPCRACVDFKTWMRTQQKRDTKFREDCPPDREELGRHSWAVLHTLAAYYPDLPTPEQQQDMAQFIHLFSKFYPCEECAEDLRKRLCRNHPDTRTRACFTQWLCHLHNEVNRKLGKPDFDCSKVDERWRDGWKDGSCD
# Beta2AR agonist: beta2AR agonists driving receptor internalization, primary screen, cell-based, FAP fluorogen, flow cytometry | response, % (concentration not given with the values) | actives 0.43% (n = 340,000) | Beta-2 adrenergic receptor (Homo sapiens), P07550 | AID 504454, 2011 | Am2.2-beta2AR cells; reference of the scale not given here;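 active = response above a set limit, near 3 SD of response in nonfluorescent compounds, cut at about 42% in these data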;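 note: stock transfer was 100 nL into about 11 µL; a reference agonist was the positive control; negative values mostly stem from fluorescent compounds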
# Target sequence (P07550 whole entry, looked up): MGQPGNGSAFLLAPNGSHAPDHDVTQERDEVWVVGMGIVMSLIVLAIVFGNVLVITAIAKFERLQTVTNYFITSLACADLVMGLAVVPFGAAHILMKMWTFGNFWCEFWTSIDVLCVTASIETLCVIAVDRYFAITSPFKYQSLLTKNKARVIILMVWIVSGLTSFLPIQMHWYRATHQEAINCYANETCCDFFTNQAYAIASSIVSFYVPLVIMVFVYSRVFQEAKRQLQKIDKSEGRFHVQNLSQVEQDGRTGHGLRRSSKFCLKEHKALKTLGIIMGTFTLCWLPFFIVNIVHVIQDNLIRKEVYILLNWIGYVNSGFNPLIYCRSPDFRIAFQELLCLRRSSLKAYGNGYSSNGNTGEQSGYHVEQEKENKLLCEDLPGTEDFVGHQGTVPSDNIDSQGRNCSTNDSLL
# T cruzi repl: inhibitors of intracellular T. cruzi growth, primary screen, luminescence, NIH3T3 host cells. actives 1.4% (n = 300,000). T. cruzi beta-gal in NIH3T3, 90 h. inhibition, % (test concentration not listed);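 active = mean inhibition across valid replicates above about 55%, limit read from the data; inconclusive = mean below that limit but half or more replicates reach it; inactive = mean below it, under half of replicates reach it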;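 note: signal also drops with host cell toxicity which is not excluded here; 0% = plate median of DMSO wells and 100% = zero luminescence signal; higher percent means less beta-gal luminescence so fewer parasites; stock transfer was 50 nL into about 50 µL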
# A1 inh: caspase 3/7 activation in MEF A1-2A-BIM cells, primary screen, A1 inhibitor project, cell-based, luminescence, HTS. Caspase-Glo 3/7 luminescence, 3 h; percent of clofoctol response, vehicle zero. caspase activation, % (concentration not given with the values). actives 0.066% (n = 330,000). AID 2462, 2010;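 active = over half of replicate activation scores above 10%, or exactly half above 10 with the replicate mean above 10; inconclusive = replicate mean below 10 yet half the replicates above 10; inactive = over half of replicates below 10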;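 note: wells of about 30 µL received 50 nL stock; many hits fall short of the cut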
# Ecoli rRNA inh: reduced GFP signal of wild-type E. coli, primary screen, bacterial rRNA inhibitor project, GFP/RFP fluorescence, OD600, single point; E. coli WT GFP vs humanized-ribosome RFP mutants, 24 h; stronger effect = lower value; DMSO median 0, no signal -100; GFP signal change (wild-type ribosome), % (test concentration not listed); actives 1.6% (n = 350,000); AID 720706, 2013;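 active = significant combined selectivity score with lowered wild-type GFP, culture density cut under 30%, mutant RFP and density less affected; inactive = any of these conditions unmet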; note: one replicate is shown; some compounds called inactive have numbers as strong as hits
# Ecoli rRNA inh OD600: recorded beside Ecoli rRNA inh, whose call it bears; OD600 change, %; measured here: OD600 growth;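 optical density of the mix in the first replicate; 0 = DMSO median and -100 = no signal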
# Ecoli rRNA inh RFP: recorded beside Ecoli rRNA inh, whose call it bears; RFP signal change, %; measured here: RFP humanized mutant strains;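 first replicate; 0 = DMSO median and -100 = no signal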
# An asterisk follows results filed as active; ? = inconclusive; . = not tested or not shown. These rows are one share of the data; the hit share may differ from the screen's.
SMILES,Beta cell apopt,Calb FLC,LANA-H2A inh,ALR H2O2 inh,Beta2AR agonist,T cruzi repl,A1 inh,Ecoli rRNA inh,Ecoli rRNA inh OD600,Ecoli rRNA inh RFP
Cc1cccc(N(CC(=O)NC2CCCCC2)C(=O)c2c(C)noc2C)c1,3,-2,2.9,-4,5,-5,1.1,.,.,.
O=C(c1ccccc1OCc1ccccc1Br)N1CCN(c2ncccn2)CC1,2,38,7.1,-4,-6,16,0.1,.,.,.
Cc1cccc(-c2noc(CCCC(=O)NC3CCCC3)n2)c1,-2,-3,-1.8,8,-6,3,1.0,-1,1,0.2
O=C(CC(C(=O)O)c1ccc(Cl)cc1)c1ccc(Cl)c(Cl)c1 (stereo not drawn),0,2,-1.3,.,6,8,1.4,-26,-44,-12
Fc1ccccc1/C=N/Nc1nc2ccccc2o1,2,1,2.0,-4,-2,-7,-6.2,14,12,2.4
O=C(Nc1ccccc1)N1CCN2C(=O)c3ccccc3C12c1ccccc1 (stereo not drawn),4,1,-4.6,1,-2,2,0.8,.,.,.
O=C(NCc1csc(-c2ccccc2)n1)c1cc(F)cc2c1OCOC2,2,-2,4.8,-10,0,9,-0.5,-4,28,3.3
COc1cccc(C(=O)C2CCCN(Cc3cccn3-c3ccccn3)C2)c1 (stereo not drawn),15,52,-3.6,-6,4,29,-0.8,3,3,-1.6
CCC(C)C(NC(=O)OC(C)(C)C)C(=O)NC(CC(C)C)C(N)=O (stereo not drawn),0,-2,0.5,-15,-1,-2,-0.2,.,.,.
CCOC(=O)N1CCC(NC(=O)CN(C)S(=O)(=O)c2cc3c(cc2Cl)NC(=O)CO3)CC1,0,?,0.7,-22,2,12,0.1,.,.,.
O=C(Nc1nc2cc3c(cc2s1)OCO3)C1CCCCC1,6,-17,4.9,2,3,1,0.4,-2,7,-1.6
O=C(c1ccccc1)c1ccc(OCC(=O)N2CCOCC2)cc1,3,-9,-1.8,10,-4,10,0.2,12,3,0.1
Cc1ccc(S(=O)(=O)Oc2ccc(/C=C3/C(=N)N4C(=NC3=O)SN=C4S(C)(=O)=O)cc2)cc1,-2,16,13,98*,-6,17,0.6,-16,-34,-3.0
Cc1cc2c(ncn2C)c(NS(=O)(=O)c2ccc(F)cc2)c1C,-1,25,-0.4,3,-3,-13,-1.4,18,21,5.3
C=CCNC(=S)Nc1sc2c(c1C(N)=O)CCCC2,1,3,-0.8,98*,-10,-14,-0.3,-31*,-17*,0.1*
Cc1noc(C)c1S(=O)(=O)N(C)C[C@H]1Oc2c(NC(=O)NC3CCCCC3)cccc2C(=O)N([C@H](C)CO)C[C@@H]1C,-2,.,-1.2,-3,-6,.,0.3,-1,0,0.3
CCc1ccc(C2NC(c3ccc(CC)cc3)C([N+](=O)[O-])C(C)(C)C2[N+](=O)[O-])cc1 (stereo not drawn),5,2,2.6,-1,2,33,0.0,4,5,0.6
COc1ccc(C2CC(C(F)(F)F)n3nc(C(=O)NCCCn4ccnc4)cc3N2)cc1OC (stereo not drawn),-6,1,3.8,-2,2,4,0.2,.,.,.
COc1cccc(CNC(=O)Cn2ccc3cc(S(=O)(=O)N4CCCC4)ccc32)c1OC,-7,13,1.6,-11,6,-3,2.6,9,2,-0.3
Cc1ccc(S(=O)(=O)N2CCC(C(=O)N[C@@H](C)C(=O)NCc3ccco3)CC2)cc1,-3,-2,-0.7,-1,-4,-25,0.8,.,.,.
Cc1ccc(S(=O)(=O)Nc2ccccc2C(N)=O)cc1,-6,7,3.9,-4,8,6,0.1,.,.,.
C/C(=N\N1CCCCC1)c1ccccc1O,-4,-13,-3.5,-10,3,1,0.7,6,18,2.3
c1ccc(CSc2ccc(-c3cccs3)nn2)nc1,-18,16,-0.2,-5,-5,2,-3.2,-10,-3,-0.7
C/C(=N/Nc1ccc(C)cc1)C1(C)N(O)C(C)(C)C(c2ccco2)=[N+]1[O-] (stereo not drawn),-5,112*,8.2,?,-2,-6,-1.2,1,1,-1.1
CCC/C=N/Nc1nnc(Cc2ccc(OC)c(OC)c2)c(=O)[nH]1,-3,1,-1.6,5,-4,-5,2.4,9,7,-3.4
COc1ccc2cc(-c3cc(C(=O)O)c4ccccc4n3)ccc2c1,13,0,1.6,-17,10,-9,-7.5,.,.,.
O=[N+]([O-])c1ccc(N2CCN(Cc3cccc([N+](=O)[O-])c3)CC2)cc1,-8,4,-5.6,2,3,14,-0.4,0,0,2.8
COc1ccc(NS(=O)(=O)c2ccc(Br)s2)cc1OC,6,-4,-2.8,42,-1,-6,0.0,.,.,.
Cc1cc(C)c(S(=O)(=O)N2CCN(c3ccc([N+](=O)[O-])c(NCC4CCCO4)c3)CC2)c(C)c1 (stereo not drawn),.,2,-1.9,0,-11,51,0.3,.,.,.
O=C(c1ccc(N2C(=O)C3CC=C(Cl)CC3C2=O)cc1)N1CCOCC1 (stereo not drawn),-7,6,-1.1,.,0,-13,-0.4,.,.,.
Nc1cc(=O)nc(SCC(=O)NC2CCCCC2)n1-c1ccccc1,-7,-5,-2.3,.,-1,1,0.3,.,.,.
O=C1C=C(c2ccc(F)cc2OCc2ccccc2)C[C@@H](c2ccc(F)cc2)C1,65,.,1.5,0,5,.,-0.2,13,11,1.6
CC(=O)OCCN(CCCn1c(-c2ccncc2)nc2ccccc21)c1nc(CN2CCCCC2)cs1,-18,3,-6.8,-4,-25,-16,0.5,5,14,9.8
O=C1CC(=O)N(c2cccc(F)c2)N1,0,?,-2.1,56,13,-8,-0.1,4,8,-1.7
COc1cc(C(CCN2CCCC2)c2c(OC)cc(OC)c3ccc(=O)oc23)cc(OC)c1OC (stereo not drawn),4,0,2.2,-37,0,11,-0.2,12,18,1.6
Cc1cccc(N2CCN(c3nc4ccc(Cl)cc4n4cnnc34)CC2)c1C,10,-3,-0.5,.,-20,39,-0.3,7,5,3.1
COc1ccc(/C=N/n2cnnc2)cc1Oc1nc(Cl)ncc1F,-4,?,-0.5,-7,5,-13,0.1,4,-5,-1.0
Cc1cc(OCC(=O)NCC(C)C)cc(C)c1Br,0,-1,-1.3,-4,4,-13,0.4,.,.,.
CN1CCN(C(=O)C2=C[C@@H](c3csc4ccccc34)C[C@@H](OCc3ccc(CO)cc3)O2)CC1,5,7,-4.6,-3,-13,10,0.7,-3,-4,33
COCCN(Cc1cc2cc3c(cc2nc1Cl)OCO3)C(=O)Nc1ccc(OC)cc1,17,-6,2.7,-15,1,-14,0.5,17,19,-1.6
CC(OC(=O)c1cccc(S(=O)(=O)N2CCCCCC2)c1)C(=O)Nc1ccc(S(N)(=O)=O)cc1 (stereo not drawn),.,-6,0.2,.,5,-5,0.5,-8,-24,1.1
CN(C)S(=O)(=O)c1cccc(NC(=O)c2ccc(N3CCOCC3)c([N+](=O)[O-])c2)c1,-2,-9,1.5,-5,45*,-3,-0.1,-26,-38,-4.5
COC(=O)/C=C/C1=CN(Cc2ccccc2)CCC1=O,-3,.,4.0,-12,4,.,-0.1,1,5,-1.8
O=C(Cn1c(=O)c2cccn2c2ccccc21)NCCc1ccc(Cl)cc1,-1,3,0.2,.,-11,16,0.0,-1,9,-2.9
O=C1CCCN1CN1CCCCC1,-5,-5,2.2,-1,-1,-9,-0.2,.,.,.
CN1CCn2c1nc(N1CCCCC1)nc2=O,-1,-7,-2.6,-1,3,1,0.5,.,.,.
O=C(OCC(=O)N1CCN(S(=O)(=O)c2ccc(Cl)cc2)CC1)C1CCC1,-3,-6,1.3,.,1,-5,0.1,11,11,-1.9
CCOC(=O)Cc1csc(SCc2cc(=O)oc3cc(O)ccc23)n1,-23,-9,-2.4,98*,1,8,1.0,.,.,.
COc1ccc(C(=O)Sc2nncc3ccccc23)cc1,-8,-15,-0.7,27,-5,0,-0.6,6,12,4.0
O=C(Oc1cccnc1)c1cc(S(=O)(=O)N2CCOCC2)ccc1Cl,-5,0,-1.7,-8,7,-15,0.8,6,1,-1.7
COCCN1Cc2cccc(C(=O)Nc3ccc(-c4nc5ccccc5[nH]4)cc3)c2C1=O,1,2,0.6,-3,0,7,-0.3,.,.,.
COc1ccc(Br)cc1C(=O)N/N=C/c1ccc2c(c1)n(C)c(=O)n2C,-7,10,2.4,.,-6,0,0.5,14,12,-1.2
Cc1nn(C)c2nc(-c3cccs3)cc(C(F)(F)F)c12,-6,8,0.7,-6,7,20,-0.6,7,5,-0.6
CCOC(=O)c1cnc(SCc2ccc(C)cc2)nc1N,-4,25,4.3,-6,-3,13,-0.3,.,.,.
COC(=O)c1ccccc1NC(=O)CN(Cc1ccccc1)S(C)(=O)=O,.,40,-3.4,-6,5,-8,1.2,.,.,.
COc1ccc(S(=O)(=O)N2CC(C)N(C(=O)N(C)C)C2C)cc1 (stereo not drawn),3,9,-3.0,-4,-1,-13,0.4,6,11,0.3
O=C(NC1CCCC1)C(c1ccc(F)cc1)N(C(=O)c1csnn1)C1CC1 (stereo not drawn),5,-6,-1.8,-2,5,-10,0.1,1,5,-2.8
COC(=O)c1ccc(NC(=O)c2ccc3c(c2)C(=O)N(C)C3=O)cc1,-1,6,-0.8,.,1,4,0.4,6,4,-0.3
C=CCOc1ccc(C2/C(=C(\O)c3ccc4c(c3)OCCO4)C(=O)C(=O)N2CCCN2CCOCC2)cc1 (stereo not drawn),-3,5,3.4,6,7,-18,-0.3,-1,3,-0.5
Cc1ccc(OCC(=O)N/N=C\c2ccc(C)o2)c(C)c1,0,-5,2.0,-3,0,4,-0.6,0,0,-1.1

# (further entries)
SMILES,Beta cell apopt,Calb FLC,LANA-H2A inh,ALR H2O2 inh,Beta2AR agonist,T cruzi repl,A1 inh,Ecoli rRNA inh,Ecoli rRNA inh OD600,Ecoli rRNA inh RFP
O=C(c1ccc(F)cc1)N1CCN(c2ncccn2)CC1,-3,-5,3.1,16,-17,-6,0.0,.,.,.
CCCC[N+](CC#Cc1ccccc1)(CCCC)CCCS(=O)(=O)[O-],.,5,2.8,-7,5,-5,-0.5,6,5,2.9
COc1ccc(NC(=O)CSc2nc(O)cc(=O)n2-c2ccccc2)cc1,0,5,-8.6,99*,0,1,0.4,-2,10,1.5
COc1ccc(OC)c(S(=O)(=O)Nc2cccnc2)c1,-9,-11,-4.0,-3,0,-24,-0.2,.,.,.
Cc1cccc(C2Nc3cccc4cccc(c34)N2)c1,-3,4,-0.1,-7,32,10,1.6,12,15,1.6
O=C(CSc1ncccc1-c1nc2ccccc2[nH]1)Nc1ccc2c(c1)OCCO2,10,-9,.,.,-9,-5,-1.0,.,.,.
